Sa ugtP lethal = growth inhibition of S. aureus ugtP deletion strain; S. aureus RN4220 ugtP deletion, OD600 growth, 16 h; some inactives read as strong as hits; growth inhibition, % (no concentration beside the values); hit rate 0.54% among 330,000; AID 1259309;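 active = z-score under -3 and OD600 up to 0.15 on both plates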;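 note: plate controls were untreated wells for no effect and antibiotic for full effect; wells of about 80 µL received 100 nL stock; the first replicate is given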
Bead autofluor = flagged as autofluorescent in microsphere protease counterscreen; compound autofluorescence counterscreen, microsphere flow cytometry; stronger effect = higher value; fluorescence intensity (concentration not given with the values); hit rate 3.1% among 360,000; AID 624483;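 active = at least 3 SD above the mean of all compounds, about 16000 in these data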;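 note: 100 nL of 1 mM stock went into each well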
Sa RN4220 lethal = S. aureus RN4220 growth inhibition; inhibition, % (concentration not given with the values); OD600, 16 h; hit rate 0.33% among 330,000; AID 1259311;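 active = z-score of -3 or lower and OD600 up to 0.18 on both plates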;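 note: plate controls were untreated cells for no effect and reference antibiotic for full effect; stock transfer was 100 nL into about 80 µL; one replicate is shown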
Mtb hypoxia rep = inhibitors of hypoxia-regulated fluorescent reporter in Mycobacterium tuberculosis | hit rate 0.1% among 300,000 | AID 1159583 | M. tuberculosis hypoxia-regulated fluorescent reporter, fluorescence | fluorescence inhibition, % (concentration not given with the values);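 active = 35 to 45% if threefold the growth effect, above 45% if 1.5-fold the growth effect; inactive = the rest, general growth blockers included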;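 note: wells of about 50 µL received 100 nL stock; 0% = vehicle wells and 100% = reference inhibitor wells; whole bacteria with a GFP reporter of the hypoxia response; strong numbers were not always called active; many hits fall short of the cut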
BJeLR lethal = BJeLR cell viability loss. BJeLR (HRASV12) viability, CellTiter-Glo ATP luminescence, 48 h; reference of the scale not given here. inhibition, % (no concentration beside the values). hit rate 0.17% among 300,000. AID 1554;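 active = replicate mean above 50%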;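 note: 50 nL library stock added to about 25 µL; numbers are from one replicate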
PrP UTR inh = inhibition of PrP 5' UTR reporter expression | cell-based PrP 5' UTR mRNA reporter, plate reader | inhibition, % (test concentration not listed) | hit rate 0.35% among 340,000 | AID 488862;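 active = every replicate at 50% or more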;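 note: 0 = median of the neutral control wells; tested in H4 reporter cells; numbers are from one replicate; inactives centre near -14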
Mtb hypoxia rep growth = second read-out of Mtb hypoxia rep, no call of its own (marks repeat the call); growth inhibition, %; measured here: M. tuberculosis growth (absorbance);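 0% = vehicle and 100% = reference antibiotic; read after six days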
The depositor's hits bear a star; · = no result given.

Sample of the layout (two entries):
mol	Sa ugtP lethal	Bead autofluor	Sa RN4220 lethal	Mtb hypoxia rep	Mtb hypoxia rep growth	BJeLR lethal	PrP UTR inh
CCOc1ccc(C(=O)OCC(=O)N2CC(C)OC(C)C2)cc1OCC (stereo not drawn)	9	3844	2.5	-7	4	-4	-16
CC(/C=C/c1ccco1)=N\NC(=O)CNc1cccc(C)c1	·	3364	·	·	·	0	18

The whole of this part, from the start:
mol	Sa ugtP lethal	Bead autofluor	Sa RN4220 lethal	Mtb hypoxia rep	Mtb hypoxia rep growth	BJeLR lethal	PrP UTR inh
CCOc1ccc(C(=O)OCC(=O)N2CC(C)OC(C)C2)cc1OCC (stereo not drawn)	9	3844	2.5	-7	4	-4	-16
CC(/C=C/c1ccco1)=N\NC(=O)CNc1cccc(C)c1	·	3364	·	·	·	0	18
CN1CCc2c(sc3c2c(=O)n(-c2ccccc2)c2n[nH]c(=S)n32)C1	-10	9666	-2.1	4	10	-13	-30
C=CCn1cc(/C=N/Nc2nc3ccccc3[nH]2)c2ccccc21	·	2209	·	·	·	4	-55
Cc1nsc(Nc2ccccc2)c1C#N	10	4353	6.5	-3	2	-6	-43
Cc1c(CCOC(=O)c2ccccc2)sc[n+]1CC(=O)c1ccc(Br)cc1	-1	3730	-1.9	-11	0	-6	-32
Cc1ccc2c(cnn2C(=O)CCCC(=O)NC(C)c2ccccc2)c1 (stereo not drawn)	-2	5407	15	-5	9	-4	-41
COc1ccc(NC(=O)c2ccc(OCC3CCCO3)cc2)cc1Cl (stereo not drawn)	5	·	2.2	-9	-10	·	-54

7 entries from above, set out differently.
Below each SMILES: Sa ugtP lethal, Bead autofluor, Sa RN4220 lethal, Mtb hypoxia rep, Mtb hypoxia rep growth, BJeLR lethal, PrP UTR inh
- Cc1c(CCOC(=O)c2ccccc2)sc[n+]1CC(=O)c1ccc(Br)cc1
  -1, 3730, -1.9, -11, 0, -6, -32
- CCOc1ccc(C(=O)OCC(=O)N2CC(C)OC(C)C2)cc1OCC (stereo not drawn)
  9, 3844, 2.5, -7, 4, -4, -16
- COc1ccc(NC(=O)c2ccc(OCC3CCCO3)cc2)cc1Cl (stereo not drawn)
  5, ·, 2.2, -9, -10, ·, -54
- CC(/C=C/c1ccco1)=N\NC(=O)CNc1cccc(C)c1
  ·, 3364, ·, ·, ·, 0, 18
- C=CCn1cc(/C=N/Nc2nc3ccccc3[nH]2)c2ccccc21
  ·, 2209, ·, ·, ·, 4, -55
- Cc1nsc(Nc2ccccc2)c1C#N
  10, 4353, 6.5, -3, 2, -6, -43
- CN1CCc2c(sc3c2c(=O)n(-c2ccccc2)c2n[nH]c(=S)n32)C1
  -10, 9666, -2.1, 4, 10, -13, -30

The results go on:
mol	Sa ugtP lethal	Bead autofluor	Sa RN4220 lethal	Mtb hypoxia rep	Mtb hypoxia rep growth	BJeLR lethal	PrP UTR inh
O=C(Nc1nc2ccc(F)cc2s1)C1CCN(S(=O)(=O)c2cc([N+](=O)[O-])ccc2Cl)CC1	-29	2438	0.4	14	32	9	-80
COc1ccc(-n2nc(C(=O)NCc3ccco3)c3c4ccccc4n(C)c3c2=O)cc1	5	3055	6.1	-3	-8	11	-23
Cc1ccc(-c2c(C(=O)NN=Cc3cccs3)nnn2-c2nonc2N)cc1	13	·	20	1	3	·	·
COCc1ccc(C(=O)N2CCCCC2C(=O)Nc2ccc(-n3nc(C)cc3C)cc2)o1 (stereo not drawn)	4	5504	2.3	1	-3	1	-18
O=C(NCCOc1ccc(Cl)cc1)C(=O)NCC1CCCO1 (stereo not drawn)	2	5105	4.9	14	10	9	-60
COC(=O)C1CCN(CC(=O)Nc2sc3c(c2C#N)CCC3)CC1	-2	2452	0.4	·	·	-8	-22
CC1CN(C(=O)c2ccccc2Nc2ccc(SC(F)F)cc2)CC(C)O1 (stereo not drawn)	15	2243	4.0	3	9	-7	-16
CC(CC(=O)NCc1ccco1)=NNC(=O)Cc1ccccc1	-6	·	-8.6	-1	8	·	·
CCN(CCn1cccn1)C(=O)c1cc(COc2cccc3cccnc23)on1	-68	3940	18	14	4	7	-14
O=C(O)c1ccc(Cl)c(S(=O)(=O)N2CCCCCC2)c1	8	11253	5.3	6	2	-8	-8
O=C(Cn1cnc2c(nnn2Cc2ccc(F)cc2)c1=O)N1CCCc2ccccc21	15	4195	-1.9	9	4	-6	-9
C=CCN1C(=O)[C@@H]2Cc3c([nH]c4ccccc34)C(c3cc(OC)c(OC)c(OC)c3)N2C1=S (stereo partly drawn)	5	3286	1.6	-1	-10	2	4
O=C(NN=Cc1ccc(OC(=O)c2ccc([N+](=O)[O-])cc2)cc1)c1cccnc1	-2	·	-3.4	-2	3	·	·
CC(C)=C(NC(=O)c1ccccc1)C(=O)Nc1ccc(C(=O)O)cc1	-4	4922	3.3	7	-1	-8	-20
Nc1nnc(SCC(=O)Nc2ccc(S(=O)(=O)N3CCOCC3)cc2)s1	0	10859	6.5	1	9	-3	-14
CC(=O)N1N=C(c2ccc3nccnc3c2)CC1c1ccccc1 (stereo not drawn)	4	20160*	0.0	1	-2	-3	-20

Additional records
Molecule | Sa ugtP lethal | Bead autofluor | Sa RN4220 lethal | Mtb hypoxia rep | Mtb hypoxia rep growth | BJeLR lethal | PrP UTR inh
O=C(Nc1ccc(Cc2ccncc2)cc1)c1cc([N+](=O)[O-])ccc1N1CCOCC1 | 18 | 5227 | 2.2 | -4 | 1 | 0 | -16
COc1ccc(CNC(=O)CC2Sc3ccccc3NC2=O)cc1 (stereo not drawn) | 7 | 4300 | 0.5 | 6 | 13 | 3 | -17
Cc1ccc(-c2nc3c(c(=O)[nH]c(=O)n3Cc3ccccc3)n2Cc2ccccc2)o1 | -2 | 4227 | -5.5 | -7 | -2 | -12 | -40
CC(C)Cc1ccc(C2=CSC3=NCCN23)cc1 | 10 | 4128 | 3.4 | · | · | -4 | -2
CC1(C)CN(c2cccc(C#N)c2)C1=O | 9 | 2444 | 3.6 | 3 | -1 | 4 | -24
CC1C(c2ccccc2)N(C)C(c2ccccc2)CC1(O)c1ccc(F)cc1 (stereo not drawn) | 2 | 4722 | -8.5 | 3 | 2 | 8 | -13
CCOc1ccc(NCc2cccn2-c2nnc(N3CCC(C(=O)NCCCN4CC(C)CC(C)C4)CC3)s2)cc1 (stereo not drawn) | · | 5095 | · | · | · | 2 | -10
COc1ccc(CC(=O)N2CCN=C2SC)cc1OC | 3 | 4339 | 2.9 | 7 | 7 | 10 | -34
CS/C(N)=N/N=C/c1cc(C)ccc1O | · | 3872 | · | · | · | 7 | -78
CN1CCN(CCNC(=O)c2cc3c(=O)n(C)c4ccccc4c3n2C)CC1 | 5 | 4573 | 4.9 | · | · | -10 | -21
Fc1nc(N2CCCC2)c(F)c(Oc2ccccc2Oc2c(F)c(F)nc(N3CCCC3)c2F)c1F | 1 | 4604 | 2.2 | 4 | 9 | -6 | -19
CC(=O)c1sc(NN=Cc2ccc(Br)cc2)nc1C | -25 | · | 0.1 | 12 | 21 | · | ·
Cn1c(SCC(=O)c2ccc(F)cc2)nnc1-c1cnccn1 | -11 | 18205* | 9.9 | 7 | 11 | 4 | -30
COc1ccc(-c2noc(CCCC(=O)Nc3ccc(C(N)=O)cc3)n2)cc1 | 1 | 22075* | 1.0 | 6 | 2 | 20 | 7
Cc1cccc(C)c1NC(=O)Cn1cnc2c(=O)n(C)c(=O)n(C)c21 | -10 | 8433 | 9.1 | 5 | 11 | -5 | -19
COc1ccc(-n2c(-c3cccc(OC)c3)nc(=S)c3c2CCCC3)cc1 | 76 | 10351 | 64 | 10 | 14 | -1 | -15
COc1ccc(S(=O)(=O)N2C3CCC2CC(NC(=O)C2CC2)C3)cc1 (stereo not drawn) | 4 | 4391 | 3.6 | 3 | 9 | 3 | -13
NC(=O)CSc1nnc(-c2ccccn2)n1N | 15 | 6380 | 4.9 | 4 | 11 | -2 | 2
COCCNC(=O)C1CC1C(NP(=O)(c1ccccc1)c1ccccc1)c1ccccc1 (stereo not drawn) | 0 | · | 5.3 | 3 | 0 | · | ·
Nc1oc2ccccc2c1C(=O)Cc1ccccc1O[C@@H]1O[C@H](CO)[C@@H](O)[C@H](O)[C@H]1O | -5 | 5266 | 1.3 | · | · | 7 | -15
COC(=O)C1=C(C(=O)OC)C2N(Cc3ccccc3)c3ccccc3[C@@]23CC(C(=O)OC)N(C(=O)COCc2ccccc2)C3=N1 (stereo partly drawn) | -4 | · | 2.3 | 9 | 11 | · | ·
COc1ccc(-c2csc3ncnc(N4CCN(CCO)CC4)c23)cc1 | 11 | 3271 | -0.1 | 2 | 1 | 8 | -16
Cc1ccc2c(c1)NP(=S)(Oc1ccccc1)N2 (stereo not drawn) | 6 | 3864 | 3.2 | 11 | 7 | · | -24
CC(=O)Nc1ccc(S(=O)(=O)N(C)CC(=O)OC(C)C(=O)N(C)Cc2ccccc2)cc1 (stereo not drawn) | -1 | 5145 | 1.3 | 8 | 10 | -5 | -11
COc1cccc(N2CCN(c3ncnc4c3[nH]c3ccc(F)cc34)CC2C)c1 (stereo not drawn) | -13 | 3479 | 22 | -3 | 4 | 36 | -20
CCN(CC)c1ccc(CNC(=O)C/C(C)=N/NC(=O)COc2ccc(C)cc2Br)cc1 | · | 3760 | · | · | · | -3 | -27
O=C(CCCc1ccccc1)c1ccc2c(c1)OCCO2 | 20 | 11160 | 8.0 | 1 | 7 | -12 | 83*
O=C(Cc1ccc(Cl)cc1)Nc1ccccn1 | 2 | 4359 | 1.6 | 17 | 6 | -26 | -24
COc1cccc(C2c3[nH]c4ccccc4c3CCN2Cc2cccn2-c2ncccn2)c1 (stereo not drawn) | -6 | 3335 | 0.9 | -7 | 4 | 4 | 2
CCC(C)Sc1ccc([C@H]2N[C@@](CC(C)C)(C(=O)OC)[C@H]3C(=O)N(C)C(=O)[C@@H]23)cc1 (stereo partly drawn) | · | 4064 | · | · | · | 2 | -3
CCOC(=O)c1c(C)[nH]c(NC(=O)NNC(=O)c2ccc(OC)cc2)c1C | 5 | · | -0.2 | 5 | 3 | · | ·
CCOc1ccc(C(=O)N/N=C(\c2ccccc2)c2ccccn2)cc1 | · | 3886 | · | · | · | 18 | 24
Cc1ccn2c(CNCCn3nc(C)cc3C)c(C(=O)N3CCCCCC3)nc2c1 | 6 | 4137 | 16 | 1 | 10 | -4 | -14
O=C(O)CSc1ncnc2sc(-c3ccccc3)cc12 | · | 3480 | · | · | · | -4 | -10
Cc1cc(NCc2ccccc2)n2ncnc2n1 | 8 | 3453 | 2.1 | 2 | 5 | -10 | -24
